Source: PubChem
NPYLR7 ag = activates Aedes aegypti NPYLR7 receptor | HEK293T NPYLR7/Galpha15, GCaMP6s calcium fluorescence | activation, % at 10 µM | actives 0.15% (n = 270,000); in the data active = activation above about 40%;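 also: 0% = vehicle and 100% = reference agonist at the receptor; some compounds past the cut are filed as inactive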
NPYLR7 ag max-min = further read-out of NPYLR7 ag, marked with its call; activation, %; measured here: Max-Min RFU normalised activation; some inactives read as strong as hits;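 span of the calcium signal over five minutes; 0% = vehicle and 100% = native peptide agonist; compound fluorescence can raise it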
The depositor's hits bear a star; & = joins results of further samples.

How did C[C@H]1O[C@@H](O[C@H]2[C@@H](O)C[C@H](O[C@H]3[C@@H](O)C[C@H](O[C@H]4CC[C@]5(C)C6C[C@@H](O)[C@]7(C)[C@@H](C8=CC(=O)OC8)CC[C@]7(O)C6CC[C@@H]5C4)O[C@@H]3C)O[C@@H]2C)C[C@H](O)[C@@H]1O (stereo not given in full) do in these assays?
NPYLR7 ag: -8; NPYLR7 ag max-min: -13

What do the screens show for `Cc1c(C(=O)N2c3ccccc3CC2C)sc2nc(-c3ccc(F)cc3)cn12` (stereo not given)?
NPYLR7 ag: 0; NPYLR7 ag max-min: -2

What do the screens show for `COc1ccc(NC(=O)N2CCN(c3nc(-c4ccc(C)cc4)nc(C)c3Cc3ccccc3)CC2)c(OC)c1`?
NPYLR7 ag: -6; NPYLR7 ag max-min: 2

Results for N#CC(C#N)=Cc1cn(-c2ccccc2)nc1-c1ccc(Br)cc1 ?
NPYLR7 ag: -6; NPYLR7 ag max-min: -11

Results for O=C(c1cccc(F)c1)N1CCN(S(=O)(=O)c2ccccc2)CC1 ?
NPYLR7 ag: 17; NPYLR7 ag max-min: 10

What do the screens show for `CCN(CC)c1cc(C(F)(F)F)nc(SCc2ccc(C(=O)NCCc3ccccn3)o2)n1`?
NPYLR7 ag: 10; NPYLR7 ag max-min: -1

What do the screens show for `Cc1cc(=O)n2c(-c3cccc(NC(=O)c4ccccc4C(F)(F)F)c3)csc2n1`?
NPYLR7 ag: -4; NPYLR7 ag max-min: -8

What do the screens show for `O=C(CCN1CCCCC1)Nn1c(=S)[nH]c2ccccc2c1=O`?
NPYLR7 ag: -5; NPYLR7 ag max-min: -7

Results for O=S(=O)(NC1CCCCC1Sc1ncccn1)c1ccccc1 (stereo not given) ?
NPYLR7 ag: 4; NPYLR7 ag max-min: 4

Results for CCCCN(CC(=O)Nc1cc(C(C)(C)C)nn1-c1ccc(C)cc1)C(=O)c1cccc(Br)c1 ?
NPYLR7 ag: -1; NPYLR7 ag max-min: 3

How did CC1ON=C(c2ccccn2)N(CCCc2ccccc2)C1=O (stereo not given) do in these assays?
NPYLR7 ag: 6; NPYLR7 ag max-min: 4

How did O=C(O)c1ccccc1-n1ncc2c1/C(=C\c1ccc(Cl)cc1)CC2 do in these assays?
NPYLR7 ag: 0; NPYLR7 ag max-min: 0

How did COc1ccc2cc3[n+](cc2c1OC)CCc1cc2c(cc1-3)OCO2 do in these assays?
NPYLR7 ag: -7&0&-9&-3; NPYLR7 ag max-min: -13&-4&-19&-7

How did COCCCN(CC(=O)N(CCc1ccc(OC)c(OC)c1)Cc1sccc1C)C(=O)Cc1ccc(F)cc1 do in these assays?
NPYLR7 ag: -7; NPYLR7 ag max-min: 1

How did CCOC(=O)c1ccc2ncc(C(=O)OCC)c(N)c2c1 do in these assays?
NPYLR7 ag: 4; NPYLR7 ag max-min: 4

Sorted by molar mass (high to low): some entries from above.
What do the screens show for `COc1ccc(NC(=O)N2CCN(c3nc(-c4ccc(C)cc4)nc(C)c3Cc3ccccc3)CC2)c(OC)c1`?
NPYLR7 ag: -6; NPYLR7 ag max-min: 2

What do the screens show for `Cc1c(C(=O)N2c3ccccc3CC2C)sc2nc(-c3ccc(F)cc3)cn12` (stereo not given)?
NPYLR7 ag: 0; NPYLR7 ag max-min: -2

What do the screens show for `O=C(CCN1CCCCC1)Nn1c(=S)[nH]c2ccccc2c1=O`?
NPYLR7 ag: -5; NPYLR7 ag max-min: -7

(listing goes on)
What do the screens show for `CCC1CN(C(=O)CN2CCC(=O)NC2=O)CC1N(C)C` (stereo not given)?
NPYLR7 ag: 1; NPYLR7 ag max-min: 1

How did Cc1nc(-n2cnnc2)ccc1-c1ccnc2c1ccn2C do in these assays?
NPYLR7 ag: 4; NPYLR7 ag max-min: 2

What do the screens show for `O=c1ccc(-c2ccccc2)nn1Cc1ccccc1Cl`?
NPYLR7 ag: -1; NPYLR7 ag max-min: -2

Results for CCCn1nccc1C(=O)N1CCNCC1C(=O)N1CCOCC1 (stereo not given) ?
NPYLR7 ag: 18; NPYLR7 ag max-min: 6

What do the screens show for `Cc1ccc(S(C)(=O)=O)cc1NCc1ccccc1Cl`?
NPYLR7 ag: -1; NPYLR7 ag max-min: -1

What do the screens show for `Cn1ccsc1=NC(=O)C=Cc1ccc(Br)o1`?
NPYLR7 ag: 3; NPYLR7 ag max-min: -1

Results for CN1CCN(c2ncccc2C(F)(F)F)Cc2ccccc21 ?
NPYLR7 ag: 0; NPYLR7 ag max-min: -1

Results for CC(C)c1nnsc1CNC(=O)C1CCCN(Cc2ccco2)C1 (stereo not given) ?
NPYLR7 ag: 0; NPYLR7 ag max-min: 4

What do the screens show for `CN(CC1(c2ccccc2)CC1(C)C)C(=O)c1cc(CN2CCOCC2)on1` (stereo not given)?
NPYLR7 ag: 0; NPYLR7 ag max-min: -4

What do the screens show for `COc1ccc(C2(CC(=O)N3CCC(c4ccccc4)CC3)CC(=O)N(C3CC3)C2=O)cc1` (stereo not given)?
NPYLR7 ag: 21; NPYLR7 ag max-min: 10

How did COc1cccc(-c2csc3nc(CN(Cc4ccco4)CC(O)COCC(C)C)[nH]c(=O)c23)c1 (stereo not given) do in these assays?
NPYLR7 ag: -12; NPYLR7 ag max-min: -12

Results for CCc1cc(N(C)CCc2ccc(OC)c(OC)c2)nc(SCc2ccc(C(=O)NCc3ccccn3)o2)n1 ?
NPYLR7 ag: 6; NPYLR7 ag max-min: 6

Results for CCN(CC)C(=O)NCCc1nc2c(F)cccc2n1C ?
NPYLR7 ag: -6; NPYLR7 ag max-min: -9

How did CC(NCCN1CCNCC1)c1cc(C(C)(C)C)cc2c1CCC2(C)C (stereo not given) do in these assays?
NPYLR7 ag: 3; NPYLR7 ag max-min: 1

How did CCN(CC)C(=O)Oc1ccc2c(ccn2Cc2cccc(F)c2)c1NC(=O)c1ccccc1OC do in these assays?
NPYLR7 ag: 2; NPYLR7 ag max-min: -3

What do the screens show for `COCC(=O)Nc1nnc(SCc2cccc(OC)c2)s1`?
NPYLR7 ag: 25; NPYLR7 ag max-min: 18

How did COc1ccc2oc(-c3ccc(NC(=O)c4ccc(Cl)cc4Cl)cc3)nc2c1 do in these assays?
NPYLR7 ag: -14; NPYLR7 ag max-min: -18

How did Cc1nc(-n2nc(-c3cccs3)cc2NC(=O)c2c(F)cccc2F)[nH]c(=O)c1C do in these assays?
NPYLR7 ag: 3; NPYLR7 ag max-min: 1

How did COc1ccc(N2C(=O)/C(=C/c3ccco3)N=C2SC)cc1Cl do in these assays?
NPYLR7 ag: 3; NPYLR7 ag max-min: -3

Results for O=C(c1nn(-c2ccc(F)cc2)c(=O)n(Cc2ccccc2Cl)c1=O)N1CCCC1 ?
NPYLR7 ag: -1; NPYLR7 ag max-min: 5

Results for COc1cccc(-c2cnnc(N3CCN(C)C(c4ccccc4)C3)n2)c1 (stereo not given) ?
NPYLR7 ag: -5; NPYLR7 ag max-min: -4

What do the screens show for `Cc1nnc2sc(SCc3ccccc3)nn2c1=O`?
NPYLR7 ag: 1; NPYLR7 ag max-min: 0

How did O=C(CCn1cccn1)N1CC[C@@H](c2ccc3ccccc3c2)[C@H](O)C1 do in these assays?
NPYLR7 ag: -4; NPYLR7 ag max-min: -3

What do the screens show for `CCOC(=O)c1cc(-c2ccc(OC)cc2)n(C2CCN(C(=O)c3sccc3C)CC2)n1`?
NPYLR7 ag: 5; NPYLR7 ag max-min: 1

What do the screens show for `CC1CCCCC1NS(=O)(=O)c1ccc(F)c(F)c1` (stereo not given)?
NPYLR7 ag: -10; NPYLR7 ag max-min: -17

Results for Cc1ccc(C(=O)N=Nc2c(O)n(C)c3ccccc23)c(C)c1 ?
NPYLR7 ag: 10; NPYLR7 ag max-min: -1

What do the screens show for `c1ccc(CCSc2nnc3n2CCN3c2ccccc2)cc1`?
NPYLR7 ag: 3; NPYLR7 ag max-min: 2

How did CCOc1ccccc1N1C(=O)CSC1c1ccc(NC(=O)C(CC)c2ccccc2)cc1 (stereo not given) do in these assays?
NPYLR7 ag: 20; NPYLR7 ag max-min: 17

What do the screens show for `COc1ccc(-c2[nH]ncc2CNC(C)CCn2cccn2)cc1F` (stereo not given)?
NPYLR7 ag: 4&9; NPYLR7 ag max-min: 2&3

Results for CCNC(=O)NC(=O)C(C)NC(C)c1ccc(F)cc1F (stereo not given) ?
NPYLR7 ag: 3; NPYLR7 ag max-min: -2

What do the screens show for `CCc1nc2c(OCC(=O)C(C)(C)C)cccn2c1N(C=O)Cc1ccccc1`?
NPYLR7 ag: 2; NPYLR7 ag max-min: 1

How did CC1CCCN(C(=O)CNC(=O)c2cccc(Cl)c2)C1 (stereo not given) do in these assays?
NPYLR7 ag: 9; NPYLR7 ag max-min: 7

How did Cc1cc2c(Nc3ccccc3O)ncnc2s1 do in these assays?
NPYLR7 ag: 4; NPYLR7 ag max-min: 5

What do the screens show for `O=S(=O)(NCCOc1cc(N2CCCCC2)ncn1)c1ccc(OC(F)(F)F)cc1`?
NPYLR7 ag: 1; NPYLR7 ag max-min: 1

How did Cc1[nH]nc(C(=O)N(Cc2cccc(F)c2)CC2CCCO2)c1Br (stereo not given) do in these assays?
NPYLR7 ag: 6; NPYLR7 ag max-min: 1

Results for CO[C@H]1CN(C(=O)c2nn(C)c3ccccc23)CC[C@H]1N ?
NPYLR7 ag: 1; NPYLR7 ag max-min: -9

How did CN(Cc1ccc(Br)s1)C(=O)c1ccccc1O do in these assays?
NPYLR7 ag: 0; NPYLR7 ag max-min: 0

Results for Cc1cnc2c(C(=O)NC(Cn3ccnc3)C(C)C)cnn2c1 (stereo not given) ?
NPYLR7 ag: 28; NPYLR7 ag max-min: 17

How did O=C(Cn1nnc(-c2ccccc2)n1)Nc1ccc2c(c1)OC1(CCCCC1)O2 do in these assays?
NPYLR7 ag: 6; NPYLR7 ag max-min: 1

What do the screens show for `O=C(NC1CC(=O)N(Cc2cccc3ccccc23)C1)C(=O)c1ccccc1` (stereo not given)?
NPYLR7 ag: 23; NPYLR7 ag max-min: 7

How did Cc1cc(=O)[nH]c(-n2nc(-c3cccs3)cc2NC(=O)c2ccccc2C)n1 do in these assays?
NPYLR7 ag: 0; NPYLR7 ag max-min: -2

Results for Cc1ccc(-n2ncc3c(C)nn(CC(=O)NCCc4ccccc4)c(=O)c32)cc1C ?
NPYLR7 ag: -2; NPYLR7 ag max-min: -2

How did CC(C)c1ccccc1OC1CC2CCC(C1)N2C(=O)c1ccc(CSc2nccc(C(F)(F)F)n2)cc1 (stereo not given) do in these assays?
NPYLR7 ag: 14; NPYLR7 ag max-min: 3

How did Nc1cc(=O)[nH]c(=O)n1C1CC1 do in these assays?
NPYLR7 ag: 2; NPYLR7 ag max-min: 0

Results for CCCCn1c(=O)[nH]c(=O)c2c1nc(CSc1nnnn1C1CCCC1)n2CC ?
NPYLR7 ag: 0; NPYLR7 ag max-min: 5

Pulled one by one from the list above (5):
Results for CCCCn1c(=O)[nH]c(=O)c2c1nc(CSc1nnnn1C1CCCC1)n2CC ?
NPYLR7 ag: 0; NPYLR7 ag max-min: 5

How did Cc1cc(=O)[nH]c(-n2nc(-c3cccs3)cc2NC(=O)c2ccccc2C)n1 do in these assays?
NPYLR7 ag: 0; NPYLR7 ag max-min: -2

How did CN(Cc1ccc(Br)s1)C(=O)c1ccccc1O do in these assays?
NPYLR7 ag: 0; NPYLR7 ag max-min: 0

How did Cc1cc2c(Nc3ccccc3O)ncnc2s1 do in these assays?
NPYLR7 ag: 4; NPYLR7 ag max-min: 5

Results for CO[C@H]1CN(C(=O)c2nn(C)c3ccccc23)CC[C@H]1N ?
NPYLR7 ag: 1; NPYLR7 ag max-min: -9

Continuation:
What do the screens show for `COc1ccc(C(=O)NC(C(=O)NC2CC2)C2CCN(C(=O)c3cccc(C)c3)CC2)cc1` (stereo not given)?
NPYLR7 ag: -3; NPYLR7 ag max-min: 8

What do the screens show for `O=C(C(Cc1ccccc1)c1ccccc1)N1CCC2(CC1)C(=O)NCN2c1ccccc1` (stereo not given)?
NPYLR7 ag: -6; NPYLR7 ag max-min: -13

What do the screens show for `COc1ccc(C(=O)Nc2ccc3c(c2)CCC(=O)N3)cc1OC`?
NPYLR7 ag: 1; NPYLR7 ag max-min: 0

How did Cc1nccc(-c2ccccc2)c1C(=O)N1C[C@H]2C[C@H](O)[C@H](O)C[C@H]2C1 do in these assays?
NPYLR7 ag: 8; NPYLR7 ag max-min: 6

How did CC(C)COC(=O)N1CC(=O)N(CCc2ccccc2)CC(O)C1 (stereo not given) do in these assays?
NPYLR7 ag: 26; NPYLR7 ag max-min: 33

How did COCCN1CCCC[C@]2(C[C@H](C(=O)O)[C@H](c3ccco3)N2C(=O)c2cccc(C#N)c2)C1=O do in these assays?
NPYLR7 ag: 4; NPYLR7 ag max-min: 12

What do the screens show for `COc1ncc(CN2CC(c3ccccn3)C2)cn1`?
NPYLR7 ag: 21; NPYLR7 ag max-min: 10

How did Nc1c(C(=O)CSc2nnc(CC3CCS(=O)(=O)C3)o2)c(=O)[nH]c(=O)n1C1CC1 (stereo not given) do in these assays?
NPYLR7 ag: 5; NPYLR7 ag max-min: 3

Results for CN(C)c1ccc(C2N=C(N)Nc3nc4ccccc4n32)cc1 (stereo not given) ?
NPYLR7 ag: 9; NPYLR7 ag max-min: 3

An excerpt (hit frequency here may not be typical).
